GLA inh pH 4.5 – blocks human alpha-galactosidase A at pH 4.5. purified enzyme, 4-MU-alpha-Gal fluorescence, pH 4.5. 230,000 tested, under 10 active. activity change, negative = inhibition, % at 105 µM. AID 1467; inconclusive = small, poorly fitted or top-dose-only inhibition, or a rising curve; inactive = flat fitted curve, though single readings scatter; no compound was filed as active;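 also: 0% = full activity with enzyme and -100% = basal without enzyme; dose as in the result columns while the protocol names 77 µM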
Rango release inh – prevents RanGTP from dissociating the Rango-importin beta complex; hit rate 0.071% among 340,000; O95149+P62826; Biochemical FRET Rango-importin beta, RanGTP-induced dissociation; Potency, µM (titrated, usually from 46.1 µM), for inactives: top-dose activity change, negative = inhibition; active means falling FRET ratio curve, often poorly fitted, with flat reads before Ran was added; inconclusive means other falling curves, or compound fluorescence or quenching; inactive means flat or rising ratio curve;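 also: potency is read from the fitted curve at half-maximal effect; % of control where 0% means no effect; nearly all actives have a fitted effect of over 45% in size; -100% = wells without RanGTP and RCC1; the record marks most hits as doubtful in a second field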
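Rango (0.1 uM)–importin beta (0.25 uM) complex; RanGTP-RCC1 trigger; 45 min RT; CFP/YFP FRET read.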
miR-21 FLuc – miR-21 reporter, rising signal | 340,000 tested, under 10 active | HeLa miR-21 FLuc reporter, luciferase, 48 h | Potency, µM (highest dose often 38.3 µM), for the others: top-dose reporter change, positive = more light | AID 2288; active = well fitted rising curve with a large enough effect; inconclusive = small, poorly fitted or top-dose-only effect; inactive = no such curve, though single readings can be large or run the other way;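 also: % of control where 0% means no effect; miR-21 action dims this reporter so a rising signal means less miR-21 action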
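Luminescence from a firefly luciferase reporter carrying a miR-21 binding site downstream, stably expressed under a CMV promoter in HeLa cells that make miR-21 endogenously, reports miRNA modulation after 48 h compound exposure up to approximately 40uM final.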
Rango complex inh – inhibitors of Rango-importin beta complex formation | Potency, µM (top dose mostly 92.2 µM), for the others: at the top dose inhibition of complex formation | hit rate 0.031% among 340,000 | AID 540263 | Rango CFP/YFP FRET sensor + importin beta, 45 min; active = rising FRET ratio curve, often small or poorly fitted; inconclusive = mostly compound fluorescence or quenching in the first reads; inactive = flat curves in all reads;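 also: potency is read from the fitted curve at half-maximal effect; 0% = DMSO wells and 100% = buffer wells lacking importin beta; nearly all actives have a fitted effect of over 15% in size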
Target sequence (Q14974 whole entry, looked up): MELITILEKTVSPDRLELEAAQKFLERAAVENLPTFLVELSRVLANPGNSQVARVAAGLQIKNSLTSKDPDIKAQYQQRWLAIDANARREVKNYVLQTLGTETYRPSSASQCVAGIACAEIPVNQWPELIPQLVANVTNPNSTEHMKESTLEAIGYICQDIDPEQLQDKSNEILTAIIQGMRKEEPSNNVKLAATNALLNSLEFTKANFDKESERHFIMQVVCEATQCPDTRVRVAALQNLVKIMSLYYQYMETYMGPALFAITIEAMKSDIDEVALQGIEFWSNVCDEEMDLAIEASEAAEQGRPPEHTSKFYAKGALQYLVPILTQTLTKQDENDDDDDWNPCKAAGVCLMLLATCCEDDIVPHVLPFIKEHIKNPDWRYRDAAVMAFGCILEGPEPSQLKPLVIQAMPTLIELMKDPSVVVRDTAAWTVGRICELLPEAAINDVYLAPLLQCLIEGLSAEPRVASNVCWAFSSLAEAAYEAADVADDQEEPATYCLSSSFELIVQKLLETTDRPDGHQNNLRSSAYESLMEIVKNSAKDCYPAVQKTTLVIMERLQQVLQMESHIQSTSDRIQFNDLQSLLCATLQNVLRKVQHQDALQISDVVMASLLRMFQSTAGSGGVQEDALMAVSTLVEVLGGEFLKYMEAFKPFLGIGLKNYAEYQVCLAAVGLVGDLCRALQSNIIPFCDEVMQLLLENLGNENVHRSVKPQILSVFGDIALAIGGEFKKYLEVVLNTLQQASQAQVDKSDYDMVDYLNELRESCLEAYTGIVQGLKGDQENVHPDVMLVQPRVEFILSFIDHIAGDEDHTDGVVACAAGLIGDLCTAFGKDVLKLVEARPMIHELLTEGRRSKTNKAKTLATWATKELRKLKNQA
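FRET biosensor Rango (snurportin 1 IBB between N-terminal EYFP and C-terminal Cerulean), 50 nM in PBS/1 mM DTT/0.02% Tween-20/0.1% BSA, preincubated 5 min RT with compound; 0.125 microM importin beta added, 45 min RT, CFP/YFP FRET ratio read.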
Active calls of the source: *; ? = inconclusive; . = no result given. The list is partial; count on the stated rates, not on these rows.

Start of the data: the first 2 entries, to show the layout:
miR-21 FLuc	Rango release inh	GLA inh pH 4.5	Compound	Rango complex inh
-7%	0%	3	O=C(CN(Cc1ccc(F)cc1)S(=O)(=O)c1ccc(S(=O)(=O)N2CCOCC2)cc1)Nc1ccccc1	-1.8%
6%	13%	-4	COc1cc(C(=O)NCCCN2CCCC2=O)cc(OC)c1OC	-1.4%

Results, from the first entry:
miR-21 FLuc	Rango release inh	GLA inh pH 4.5	Compound	Rango complex inh
-7%	0%	3	O=C(CN(Cc1ccc(F)cc1)S(=O)(=O)c1ccc(S(=O)(=O)N2CCOCC2)cc1)Nc1ccccc1	-1.8%
6%	13%	-4	COc1cc(C(=O)NCCCN2CCCC2=O)cc(OC)c1OC	-1.4%
-26%	-5%	.	CCc1ccc(-c2csc3nc[nH]c(=O)c23)cc1	-0.7%
-3%	-10%	.	CN(C)CCCN1CC(=O)N2[C@@H](Cc3c([nH]c4ccccc34)C2(C)C)C1=O	3.5%
.	-9%	.	O=C(CCNC(=O)c1ccco1)NNC(=O)c1ccc(Br)cc1	-0.2%
-9%	-10%	.	COc1ccc(-c2nc3cc(C)ccn3c2NC(=O)c2ccccc2OC)cc1	-0.2%
-4%	-7%	.	[S-]c1nnc(-c2ccc(Br)cc2)n1-c1ccccc1.[Zn+2]	-2.7%
-7%	1%	3	Cn1c(=O)cc(OCCCC(=O)NCCCN2CCN(Cc3ccccc3)CC2)c2ccccc21	1.1%
-2%	0%	.	NC(=O)c1nsc(C(=O)N(Cc2cccnc2)C(C(=O)NC2CCCC2)c2ccc(F)cc2)c1N (stereo unspecified)	-2.3%
0%	-4%	9	Cc1c(-c2cccs2)[n+](=O)c2c(n1[O-])CCCCC2	-0.9%
1%	-5%	1	C=CCNC(=O)c1sccc1Oc1ccc(F)cc1[N+](=O)[O-]	6.4%
-3%	-13%	-3	CCOc1ccccc1NC(=O)N1CCC(n2nnc3cc(C)ccc32)CC1	-0.7%
1%	-4%	-5	O=C(c1cccc2nc3ccccc3nc12)N1CCOCC1	0.3%
-6%	13%	.	COc1cc(C(C)=O)ccc1OCC(O)CN1CCN(c2ccc(F)cc2)CC1 (stereo unspecified)	0.3%
-41%	33%	-3	Oc1ccc(-c2nccc(-c3ccc(Cl)cc3)n2)cc1	0.5%
-1%	3%	5	CCCCNC(=S)NNc1c(Cl)cc(Cl)cc1Cl	-2.7%
3%	0%	-8	CCc1ccc(N2C(=O)CN(Cc3cc(OC)c(OC)c(OC)c3)C2=S)cc1	0.2%
-2%	0%	.	CN1CCc2c1nc1ccccc1c2NC(=O)CN1CCCC1	6.1%
-1%	-30%	7	S=c1[nH]nc(-c2cccs2)n1C1CCCCC1	-2.3%
2%	-11%	-5	Cc1ccc(C(=O)N2CCN(c3ccc([N+](=O)[O-])c(N4CCOCC4)c3)CC2)cc1	-0.5%
.	-16%	.	CCOC(=O)c1ccccc1NC(=O)COC(=O)C1CCN(S(=O)(=O)c2ccccc2C(=O)OC)CC1	-0.5%
2%	-13%	.	CN(CCC1CCOCC1)C(=O)CC1C(=O)NCCN1Cc1ccccc1F (stereo unspecified)	?
-5%	6%	1	COc1ccc2nc(NCCO)[nH]c2c1	5.6%
-3%	11%	-7	CSCC[C@H](NC(=O)OC(C)(C)C)c1nnc(SCc2cccc(F)c2)o1	1.9%
.	-8%	.	Cc1ccc(NC(=O)C2CCCC2)cc1Cl	-0.1%
4%	-6%	-6	Cn1c(SCC(=O)Nc2cc(Cl)cc(Cl)c2)nnc1-c1ccc2nonc2c1	-2.4%
-16%	-7%	-6	CC1CCN(c2ccc([N+](=O)[O-])cn2)CC1	-4.6%
.	-13%	.	CCN1C[C@@H]2[C@@H]3C(=O)N(Cc4ccccc4)C(=O)[C@@H]3[C@](Cc3ccccc3)(C(=O)OC)N2C1=NC	-4.2%
3%	5%	-7	CCCCC1N2CC3([N+](=O)[O-])CN1CC([N+](=O)[O-])(C2)C3(C)C (stereo unspecified)	?
-21%	-2%	-5	CCN(CC)S(=O)(=O)c1cccc(C(=O)Nc2cccc(C)c2)c1	-4.1%
-1%	4%	0	COC(=O)c1cc(C(=O)OCC(=O)NCc2ccc3c(c2)OCO3)cc([N+](=O)[O-])c1	3.8%
1%	-2%	.	CCC(C)N(C(=O)COC(=O)CSc1ccc([N+](=O)[O-])cc1)C1CCS(=O)(=O)C1 (stereo unspecified)	-0.9%
2%	-5%	.	Cc1cc(C)cc(NC(=O)CCN2C(=O)c3ccccc3C2=O)c1	0.8%
3%	0%	3	CC(=O)C1=C(C)NC(=O)NC1c1ccccc1OCC(=O)NCCc1ccccc1 (stereo unspecified)	-3.0%
.	11%	.	O=C(Nc1cc(S(=O)(=O)N2CCCCC2)ccc1N1CCOCC1)c1ccc(F)cc1	-2.4%
-6%	0%	-20	O=C(Oc1cccc2cccnc12)c1ccco1	-0.5%
.	-11%	.	O=C(Oc1ccccc1F)c1ccc2c(=O)n3c(nc2c1)CCC3	7.3%
10%	2%	-5	Cc1ccccc1NC(=S)NCc1ccc2c(c1)cc(C)n2C	2.2%
-4%	-4%	-1	O=C(Cc1sc(-c2ccccc2)nc1-c1ccccc1)Nc1ccc(Cl)cc1	1.0%
24%	-18%	-1	Cc1ccc(NC(=O)c2ccc(OC(F)(F)F)cc2)cc1S(=O)(=O)N(C)C	0.8%
0%	-6%	.	CC(C)(C)c1ccc(C(=O)Nc2ccc3c(c2)C(=O)NC3=O)cc1	0.1%
-8%	-17%	.	CCOC(=O)N1CCN(C(=O)COc2ccc3ccccc3c2Br)CC1	1.0%
-1%	-2%	-1	O=C(Cn1c2c(c(-c3ccccc3Cl)cc1=O)CCC2)NCCCN1CCOCC1	-0.8%
0%	-8%	-4	O=C(Nc1ccccc1-c1nnn(CC(=O)N2CCCc3ccccc32)n1)c1ccco1	-4.6%
0%	13%	.	CCOc1ccc(NC(=O)CCCn2nc(C)c3c(C)n(-c4ccccc4)nc3c2=O)cc1	-3.2%
4%	-6%	-3	O=C(Cn1c(-c2ccccc2Cl)nc2ccccc21)Nc1cccc(Cl)c1	-3.8%
1%	12%	.	Cc1[nH]n(-c2ccccc2)c(=O)c1N=Nc1c(Cl)cccc1Cl	-1.2%
2%	3%	.	CCc1ccc(S(=O)(=O)N/N=C(/C)c2ccncc2)cc1	0.3%
.	10%	.	CCCCn1c(N)c(N(CCC(C)C)C(=O)C2CSC3(C)CCC(=O)N23)c(=O)[nH]c1=O (stereo unspecified)	3.0%
12%	2%	2	COc1ccc(-c2cc(N3C(=O)Nc4ccccc4N3O)n[nH]2)c(OC)c1	4.2%

Next compounds follow.
miR-21 FLuc	Rango release inh	GLA inh pH 4.5	Compound	Rango complex inh
-3%	-4%	-12	COc1ccc(-n2c(SCC(=O)Nc3cccc(S(N)(=O)=O)c3)nc3ccccc3c2=O)cc1OC	-3.2%
-9%	2%	-4	Cc1ccc(C(=O)N2NC(c3ccccc3F)C3C(=O)N(c4cccc(C)c4)C(=O)C32)cc1 (stereo unspecified)	-0.2%
-2%	-11%	7	Cc1ccc(S(=O)(=O)NC(N)=NCCc2ccc(Cl)cc2)cc1	-4.2%
.	12%	.	COC(=O)[C@H]1C[C@@H](c2ccccc2)[C@H](C)C1(C)C	3.2%
-1%	26%	-1	COc1ccc(Cl)cc1NC(=O)CSc1nnc(-c2ccncc2)n1CC1CCCO1 (stereo unspecified)	-1.6%
0%	-6%	6	Cc1ccn(S(=O)(=O)c2ccc(C(C)(C)C)cc2)n1	0.1%
-1%	-15%	.	COc1ccccc1/C=C1/SC(=S)N(C(C)C(=O)NC2C=CS(=O)(=O)C2)C1=O (stereo unspecified)	0.9%
-17%	8%	-8	O=C(NC12CC3CC(CC(C3)C1)C2)c1cncc(O)c1	6.7%
-10%	4%	6	Cc1ccc(NS(=O)(=O)c2cccc(C(=O)O)c2)cc1S(=O)(=O)N1CCCCC1	?
0%	-18%	7	COCCn1nnnc1C(c1cc2c(C)cc(C)cc2[nH]c1=O)N1CCCCCC1 (stereo unspecified)	?
-32%	1%	6	Cc1cccc(NC(=S)NC(=O)c2ccc(Br)o2)c1	0.1%
-21%	10%	-4	CCC(=O)Nc1ccc(Cl)c(NC(=S)NC(=O)c2ccco2)c1	-1.3%
.	10%	.	COc1ccc(Cl)cc1C(=O)OCC(=O)c1ccc[nH]1	-0.3%
.	-3%	.	COc1ccc(S(=O)(=O)N2CCC3(CC2)OCCN3S(=O)(=O)c2ccccc2)cc1OC	0.3%
-10%	-6%	.	O=c1c2ccc(Cl)cc2nc2n1CC/C2=C\c1cccc(O)c1	-0.1%
-4%	-1%	.	CC(C)CNC(=O)C(=O)NCC(c1ccc2c(c1)OCO2)N1CCOCC1 (stereo unspecified)	-0.6%
3%	-11%	.	O=C1CCC[C@@H]2[C@H]3CCC[N+]4([O-])CCC[C@@H](CN12)[C@@H]34 (stereo partly specified)	3.6%
-2%	-18%	.	N#Cc1ccc(OCc2ccc(C(=O)O)o2)cc1	-0.7%
-2%	0%	-3	COCCSc1ccccc1C(=O)Nc1nnc(C)s1	-0.1%
-35%	1%	.	CCCCc1nc2cc(C(=O)N3CCCC3)ccc2o1	0.9%
1%	9%	12	O=C(O)CNS(=O)(=O)/C=C/c1ccccc1	-3.5%
-1%	6%	13	c1ccc(CSc2ncnc3c2sc2nc(N4CCOCC4)c4c(c23)CCCC4)cc1	-1.2%
-3%	4%	1	NC(=O)COC(=O)/C=C/c1ccc(S(=O)(=O)N2CCCCCC2)cc1	-1.0%
-2%	0%	0	CCOc1ccccc1Nc1nc2ccccc2[nH]1	-3.8%
-7%	0%	-2	Cc1nc(NCC2CC2)c2nnn(Cc3ccccc3)c2n1	0.5%

Three compounds already listed, arranged by count of non-hydrogen atoms, lowest first:
miR-21 FLuc	Rango release inh	GLA inh pH 4.5	Compound	Rango complex inh
-7%	0%	-2	Cc1nc(NCC2CC2)c2nnn(Cc3ccccc3)c2n1	0.5%
-1%	26%	-1	COc1ccc(Cl)cc1NC(=O)CSc1nnc(-c2ccncc2)n1CC1CCCO1 (stereo unspecified)	-1.6%
-3%	-4%	-12	COc1ccc(-n2c(SCC(=O)Nc3cccc(S(N)(=O)=O)c3)nc3ccccc3c2=O)cc1OC	-3.2%

Additional compounds
miR-21 FLuc	Rango release inh	GLA inh pH 4.5	Compound	Rango complex inh
-8%	-9%	2	Cc1csc(SCc2ccc(C(=O)O)cc2)n1	1.9%
.	18%	.	CCn1ncc(Br)c1C(=O)Nc1sc2c(c1C(=O)OC)CCC2	-3.2%
.	10%	.	O=C(COC(=O)/C=C/c1ccco1)Nc1cc(S(=O)(=O)N2CCOCC2)ccc1Cl	4.1%
.	9%	.	CN(CC(=O)Nc1ccc(F)cc1)CC(=O)N1CCCCC1	-0.9%
-17%	6%	-2	Nc1nc(SCC(=O)N2CCCc3ccccc32)[nH]c(=O)c1-c1ccccc1	-3.4%
0%	-10%	.	COc1ccc(C(=O)N/C(=C/c2cccnc2)C(=O)Nc2cccc(C(C)=O)c2)cc1OC	-5.6%
-14%	4%	-8	CCN1CCN(C(=O)c2ccc(Sc3ccccc3Cl)c([N+](=O)[O-])c2)CC1	2.5%
-6%	-10%	-5	Cn1nc(C(=O)Nc2sccc2C(N)=O)ccc1=O	-2.9%
-1%	-13%	.	O=C(O)C1CCC(CNS(=O)(=O)c2ccccc2)CC1 (stereo unspecified)	0.4%
-12%	-7%	3	O=C(CSCc1ccc(Cl)cc1)NN=C1CCCCCC1	-1.5%
-6%	-8%	-2	Cc1cc(C)nc(N2CCN(c3nnnn3-c3ccccc3)CC2)n1	-8.9%
1%	1%	.	COc1ccc(S(=O)(=O)N2CCC(C(=O)N[C@H](C(=O)NCc3ccco3)C(C)C)CC2)cc1	0.2%
-27%	5%	4	CN(C)C(=O)N1CCCC(C(=O)NCCc2ccccc2)C1 (stereo unspecified)	5.4%
-1%	14%	.	COc1ccc(N2CC(C(=O)N[C@H](C(=O)NC3CCCCC3)C(C)C)CC2=O)cc1 (stereo partly specified)	-0.1%
-6%	-14%	0	c1ccc(-c2nnc(SCc3nc4ccccc4[nH]3)n2Cc2ccco2)cc1	-0.4%

Bioassay records deposited in PubChem BioAssay by National Center for Advancing Translational Sciences (NCATS).
